Screening data from PubChem.
Menin-MLL FL inh = menin-MLL binding inhibition, fluorescein peptide; FP activity change, % at 61.4 µM; Fluorescence polarization, fluorescein-MLL peptide displacement from menin; AID 1766; 290,000 tested, under 10 active; inconclusive = falling polarisation curve, or a change in total fluorescence; inactive = total fluorescence flat and polarisation flat or rising; no compound was filed as active; the % refers to the polarisation; negative = inhibition;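 note: % of control where 0% means no effect; inhibitors lower the polarisation; unlabelled MLL peptide was the positive control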
TRPML1 ag = human mucolipin-1 channel agonism; AID 624414; Q9GZU1; TRPML1-expressing cells, Ca2+ dye fluorescence, FDSS; host cell line not named in the record; reference of the full effect not given here; activation, % (no concentration beside the values); actives 0.12% (n = 410,000); in the data active = activation above about 50%; inconclusive = about 30% to 50%; inactive = below about 30%; note: 0% is about no effect; the text of the record puts the active cut at 80%
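Calcium fluorescence on an FDSS kinetic reader gave the read-out. Tet-induced TRPML1-DL cells were plated overnight, dye-loaded (Ca8 with quencher, 45-90 min, room temperature, dark), then read 110 s after compound addition, and again 110 s after 4uM final 54-4 (EC80).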
TRPML1 inh = human mucolipin-1 channel inhibition; Q9GZU1; TRPML1-inducible cells, Ca2+ dye fluorescence, FDSS; stronger effect = lower value; inhibition of EC80 agonist-evoked calcium signal; activity change, negative = inhibition, % (concentration not given with the values); actives 0.02% (n = 390,000); AID 624415; in the data active means activity change below about -50%; inconclusive means about -30% to -50%; inactive means above about -30%;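 note: stimulus is agonist 54-4 at its EC80 concentration; % is set by controls: 0 for no effect and ±100 for the full control effect; compound concentration not given in the record; the text of the record puts the active cut at -80%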
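Tet-induced TRPML1-DL cells loaded with Ca8 no-wash calcium dye were read kinetically on FDSS. Compound addition was followed by EC80 agonist 54-4 (4 uM final); inhibition was read over 110 s.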
PINK1 modulator = changes PINK1 expression; PINK1 immunofluorescence, high-content cytometry, 24 h; Potency, µM (series often up to 76.6 µM), without a hit: top-dose activation (PINK1 increase), usual class: activators; actives 0.2% (n = 410,000); AID 624263; active = well fitted activation curve with a large enough effect; inconclusive = small, poorly fitted or top-dose-only effect; inactive = flat fitted curve, though single readings scatter; cell line not stated here;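 note: potency is the fitted concentration of half-maximal effect; % of control where 0% means no effect; nearly all actives have a fitted effect of over 65% in size; a mitochondrial uncoupler was the plate control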
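Compound titrations (5 concentrations, 24 h) on a stable cell line; DMSO and CCCP controls. Endpoint: fixed-cell PINK1 immunofluorescence with mitochondrial, cell and nuclear markers, scanned by microplate cytometer.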
Sfp PPTase inh = blocks B. subtilis Sfp PPTase activity; Q9F4F7; Biochemical Sfp PPTase activity, qHTS; Potency, µM, without a hit: max response, negative = inhibition, usual class: inhibitors; actives 3.5% (n = 310,000); AID 1490; active = well fitted inhibition curve with a large enough effect; inconclusive = small, poorly fitted or top-dose-only effect, or another doubt; inactive = no such curve, though single readings can be large or run the other way;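 note: the enzyme is Sfp with the accession as filed and its product quenches rhodamine fluorescence; potency is the fitted concentration of half-maximal effect; 0% = enzyme reaction without inhibitor and -100% = no enzyme wells; top concentration of the series not given in the record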
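After 15 min at room temperature with compound, 15 nM Sfp received 5 uM rhodamine-CoA plus 12.5 uM BHQ-2-ybbR (50 mM Hepes pH 7.6, 10 mM MgCl2). Rate came from the fluorescence difference over 30 min, ex 525/em 598 nm.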
ClpP mod = qHTS Assay for Activators of ClpP; Potency, µM (titrated, usually from 57.5 µM), without a hit: top-dose activity change, negative = active; purified B. subtilis ClpP, FRET peptide cleavage, 20 min; ATP-dependent Clp protease proteolytic subunit (Bacillus subtilis (strain 168)), P80244; actives 1.9% (n = 340,000); active = well fitted falling curve with a large enough effect; inconclusive = small, poorly fitted or top-dose-only effect; inactive = no such curve, though single readings can be large or run the other way; note: potency is the fitted concentration of half-maximal effect; the source files actives as falling curves though it sought activators and does not explain the sign; nearly all actives have a fitted effect of over 65% in size; many hits overshoot -100%
Target sequence (P80244 whole entry, looked up): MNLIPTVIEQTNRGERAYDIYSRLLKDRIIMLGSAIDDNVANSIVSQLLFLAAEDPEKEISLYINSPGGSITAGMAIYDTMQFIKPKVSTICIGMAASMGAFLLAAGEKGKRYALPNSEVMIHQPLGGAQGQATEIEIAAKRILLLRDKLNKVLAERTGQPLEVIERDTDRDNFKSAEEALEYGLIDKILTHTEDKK
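Buffer: 100 mM Tris/HCl pH8, 100 mM KCl, 0.05% low protease BSA, 2.5% glycerol, 0.01% Tween-20. ClpP 10 microg/mL final; 20 min RT; delta FRET normalized to ADEP and DMSO controls.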
TRPV1 potentiator = enhances activation of the human vanilloid receptor TRPV1 | Q8NER1 | TRPV1-expressing cells, Fluo-8 calcium influx, capsaicin EC20 potentiation; host cell line not named in the record; control for the full effect not named in the record | potentiation, % at 8.33 µM | actives 0.02% (n = 320,000); active means potentiation above 80%; inconclusive means 30% to 80%; inactive means below 30%; note: 0% is about no effect
Target sequence (Q8NER1 whole entry, looked up): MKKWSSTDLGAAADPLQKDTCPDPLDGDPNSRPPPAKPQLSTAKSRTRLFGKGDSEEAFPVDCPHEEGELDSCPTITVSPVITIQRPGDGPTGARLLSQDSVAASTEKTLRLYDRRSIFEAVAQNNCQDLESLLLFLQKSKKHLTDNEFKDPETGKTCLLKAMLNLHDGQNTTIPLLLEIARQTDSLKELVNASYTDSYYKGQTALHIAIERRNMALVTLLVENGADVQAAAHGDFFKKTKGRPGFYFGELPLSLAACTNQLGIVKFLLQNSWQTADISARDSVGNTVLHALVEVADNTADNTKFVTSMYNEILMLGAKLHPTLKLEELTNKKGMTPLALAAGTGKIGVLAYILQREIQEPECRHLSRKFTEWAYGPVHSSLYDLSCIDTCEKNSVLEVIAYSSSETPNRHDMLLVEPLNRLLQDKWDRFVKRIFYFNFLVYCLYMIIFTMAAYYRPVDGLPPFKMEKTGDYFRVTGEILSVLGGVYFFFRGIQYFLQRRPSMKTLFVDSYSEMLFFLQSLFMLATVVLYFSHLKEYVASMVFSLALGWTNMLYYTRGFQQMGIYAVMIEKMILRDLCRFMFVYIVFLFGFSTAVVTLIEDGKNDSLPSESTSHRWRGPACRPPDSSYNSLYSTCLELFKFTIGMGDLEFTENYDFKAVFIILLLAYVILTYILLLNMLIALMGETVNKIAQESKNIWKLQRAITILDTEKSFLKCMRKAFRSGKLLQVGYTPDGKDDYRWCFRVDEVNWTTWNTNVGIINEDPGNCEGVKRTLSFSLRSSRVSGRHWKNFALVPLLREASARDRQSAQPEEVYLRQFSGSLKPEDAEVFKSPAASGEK
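Cells expressing TRPV1 were dye-loaded with Fluo-8 and read kinetically: 10 s baseline, 3 min after compound (agonist portion), then 2 min after EC20 capsaicin (allosteric enhancer portion). Calcium-bound dye fluorescence at 480/520 nm.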
* marks the source's active call; other numbers are inactive results; ? = inconclusive; . = not tested or not shown; & = joins results of further samples; [ ] = another dose, or the depositor's remark.

SMILES	Menin-MLL FL inh	TRPML1 ag	TRPML1 inh	PINK1 modulator	Sfp PPTase inh	ClpP mod	TRPV1 potentiator
COc1ccc(C(=O)N2CCCC(CCC(=O)NCc3ccc(F)c(F)c3)C2)cc1F (configuration not stated)	2.3	0.0	5	-0.5%	13%	.	-4
Cc1cc(NC(=O)CSCC(=O)N(C)Cc2c(F)cccc2Cl)no1	.	1.6	11	-3.5%	.	1.2%	-3
O=C1/C(=C/c2cccs2)SC(=S)N1C1CCS(=O)(=O)C1 (configuration not stated)	9.2	0.4	5	0.5%	-21%	.	17
CCN(CC)S(=O)(=O)c1cccc(NC(=O)COC(=O)C2=COCCO2)c1	.	4.2	13	0.7%	.	2.3%	-11
CC(C)(C)OC(=O)N1CC23CC(c4ccc(F)cc4)C(CC2S1(=O)=O)O3 (configuration not stated)	0.1	0.3	7	.	23%	.	.
O=C1CCCCC1C(O)c1ccc(Cl)cc1 (configuration not stated)	3.8	.	.	.	13%	.	-1
Cc1ccc(-n2c(=O)c3ccc(C(=O)NCc4ccccc4Cl)cc3n(CC(=O)Nc3cccc(F)c3)c2=O)cc1	.	1.5	3	25%	.	-19%	.
O=C(Cc1ccccc1)Nc1nc2ccccc2s1	1.3	-0.4	0	-0.5%	2%	-1.7%	?
CCn1c2ccccc2c2nnc(SCC(=O)Nc3c(C)n(C)n(-c4ccccc4)c3=O)nc21	5.0	2.9	-12	8.4%	17%	0.2%	19
NC(=O)CN1N=C(c2cc(Cl)sc2Cl)CSC1=O	-0.3	-1.0	-6	-0.7%	2%	-0.4%	-15
COc1cc(OC)cc(C(=O)N2CCC(C(=O)NCCc3ccccc3)CC2)c1	3.8	0.2	18	0.4%	-2%	0.8%	1
O=C(COC(=O)CN1C(=O)C2CC=CCC2C1=O)Nc1cccc([N+](=O)[O-])c1 (configuration not stated)	.	-0.8	-12	0.5%	.	2.0%	.
CCOCCn1c(=O)c2c(nc3n2CCN3c2ccc(C)c(C)c2)n(C)c1=O	.	0.2	-16	1.4%	.	-1.2%	10
Cc1noc(C)c1CS(=O)(=O)c1ccc([N+](=O)[O-])cc1	-1.2	1.7	-7	0.6%	15%	.	-1
CCOC(=O)C1CCN(C(=O)/C=C/c2ccccc2OC)CC1	3.5	-0.3	2	1.7%	15%	?	0
COc1ccc(OC)c(NC(=O)CCN2CCN(C/C=C/c3ccccc3)CC2)c1	-5.3	0.5	-9	1.7%	-2%	-3.8%	-2
O=CN1CCN(C(=O)Cc2ccc([N+](=O)[O-])cc2)CC1	5.5	0.0	-29	-1.6%	33%	25µM*	-1
CC(=O)NS(=O)(=O)c1ccc(NC(=O)c2ccccn2)cc1	0.4	-0.5	6	1.5%	-18%	.	-1
Cc1ccccc1NS(=O)(=O)c1ccc(-c2ccc(=O)[nH]n2)o1	-8.1	-0.2	5	-0.3%	4%	-1.7%	-12
C[C@H](O)[C@@H]1C(=O)N2CCc3c([nH]c4ccccc34)[C@@H]2C[C@@H]1N(C)C(=O)c1cc(Cl)cc(Cl)c1	.	1.0	.	2.5%	.	2.2%	.
NC(=O)c1c(NC(=O)COC(=O)c2ccc(S(=O)(=O)Nc3ccccc3)cc2)sc2c1CCCC2	-2.3	-1.2	-13	1.4%	14%	20µM*	2
CCN1CCCC1CN=Cc1c(O)n(-c2ccccc2)c(=O)c2ccccc12 (configuration not stated)	14	-0.9	5	0.8%	11%	-25%	-24
CC(C)C(=O)Nc1c(-c2cccs2)c(=O)c2ccccc2n1C	2.6	0.0	-8	0.7%[38.3 µM]	10%	-7.3%	-3
COc1cccc(S(=O)(=O)Nc2noc3ccccc23)c1	4.5	.	.	0.1%	8%	-0.7%	11
CCOC(=O)c1c(-c2ccccc2)csc1NC(=O)c1cc2ccccc2oc1=O	3.3	-0.4	-17	?	4%	1.2%	-2
O=C1c2ccccc2C(O)(Cc2ccccc2)N1c1ccc2c(c1)OCO2 (configuration not stated)	2.8	0.6	6	-6.1%[38.3 µM]	5%	-2.7%	-2
Cc1c([N+](=O)[O-])c(C(=O)N2CCCC2)nn1C	-2.5	0.1	-4	3.3%[38.3 µM]	6%	-0.2%	11
CCCCn1c(N)c(N(CCOC)C(=O)C2CCN(S(=O)(=O)c3ccc(C)cc3)CC2)c(=O)[nH]c1=O	.	-0.5	-5	0.8%	.	-14%	6
CCc1nc2ccc(C(=O)Nc3cccc(C(C)=O)c3)cc2nc1CC	-1.1	-0.4	13	1.6%	6%	1.8%	-13
O=C(O)c1ccc(NC(=O)c2ccccc2Br)c(NC(=O)c2ccccc2Br)c1	1.2	-0.2	5	-0.6%	18%	1.8%	?
CCN(CC)C(=O)c1c(Cl)nc(C)c([N+](=O)[O-])c1C	-0.3	-0.2	3	-1.2%	8%	1.3%	6
CC(C(=O)NC1CCCCCC1)n1cc([N+](=O)[O-])cn1 (configuration not stated)	14	-0.1	-7	-0.8%	7%	.	-3
CCc1cc2c(=O)c(-c3cnn(-c4ccccc4)c3)c(C)oc2c(CN2CCCCC2)c1O	2.6	1.5	-6	1.4%[38.3 µM]	5%	28µM*	-12
COC(=O)c1c(C(=O)OC)c2ccccn2c1C(=O)c1ccc([N+](=O)[O-])cc1	3.4	0.2	1	-0.8%	-6%	-0.1%	1
CCOC(=O)N1CCN(C(=O)CSc2nnc(Cn3c(=O)sc4ccccc43)n2C)CC1	4.1	0.7	-18	-2.0%	16%	-0.9%	4
O=S(=O)(Cc1nnnn1-c1ccccc1)c1ccc(F)cc1	.	-0.5	-15	0.2%	17%	1.3%	7
Cc1ccc(/C=N/NC(=O)c2csc(C)c2)o1	2.7	-0.6	4	1.5%[38.3 µM]	8%	-2.0%	-22
CCN(CC)c1ccc(S(=O)(=O)N2CCOCC2)cc1NC(=O)CSC(=S)N1CCCC1	1.4	1.1	5	-0.7%	25µM*	0.1%	-10
O=C(NCc1cccc(C(F)(F)F)c1)C1CC(c2ccc(C(F)(F)F)cc2)=NO1 (configuration not stated)	0.6	1.7	-5	4.7%	-2%	4.9%	14
COc1cc(/C=C/C(=O)O)cc2c1OCCO2	-1.3	-0.1	26	1.2%	20%	-21%	-7

In the list so far, these have a furan ring, fused or not:
SMILES	Menin-MLL FL inh	TRPML1 ag	TRPML1 inh	PINK1 modulator	Sfp PPTase inh	ClpP mod	TRPV1 potentiator
Cc1ccccc1NS(=O)(=O)c1ccc(-c2ccc(=O)[nH]n2)o1	-8.1	-0.2	5	-0.3%	4%	-1.7%	-12
Cc1ccc(/C=N/NC(=O)c2csc(C)c2)o1	2.7	-0.6	4	1.5%[38.3 µM]	8%	-2.0%	-22

The main list resumes, starting 2 compounds before the break.
SMILES	Menin-MLL FL inh	TRPML1 ag	TRPML1 inh	PINK1 modulator	Sfp PPTase inh	ClpP mod	TRPV1 potentiator
O=C(NCc1cccc(C(F)(F)F)c1)C1CC(c2ccc(C(F)(F)F)cc2)=NO1 (configuration not stated)	0.6	1.7	-5	4.7%	-2%	4.9%	14
COc1cc(/C=C/C(=O)O)cc2c1OCCO2	-1.3	-0.1	26	1.2%	20%	-21%	-7
Cc1cc(C)n(-c2nc3ccccc3n3nnnc23)n1	-8.8	-0.4	17	0.1%	16%	1.2%	-16
Cc1nonc1NC(=O)CSc1nnc(-c2ccoc2C)n1-c1cccc(Cl)c1	2.6	-0.4	11	-0.3%	4%	0.8%	17
O=C(CSc1nc2ccccc2n1CCc1ccccc1)NC1CC1	2.3	-0.2	-3	1.1%	-9%	.	-18
COc1ccc(-c2ncc3ccccn23)cc1	?	-0.6	?	-2.5%	79µM*	?	-6
CN(C(=S)Nc1ccccc1F)C1(c2ccccc2Cl)CCCCC1=O (configuration not stated)	-0.9	3.2	1	11%[38.3 µM]	13%	-0.1%	-16
O=C(COC(=O)c1cccs1)NCCCc1ccccc1	-1.2	1.7	80	1.6%	-3%	.	-5
Cc1ccc(N2C(=O)NC(NS(=O)(=O)c3ccccc3)(C(F)(F)F)C2=O)cc1C (configuration not stated)	.	-0.4&-0.4	3&4	1.7%&-0.1%	24%	1.3%&-1.5%	6
COc1ccc(-c2nc(C#N)c(N3CCC(C(N)=O)CC3)o2)cc1	-0.4	-0.6&6.3	53	-0.4%&0.0%	6%	4.2%&116%	5
Cc1ccc(CCNC(=O)c2ccc3[nH]c(C)c(C)c3c2)cc1	.	0.8	8	4.4%	.	-13%	.
CCC(=O)N1CCc2cc(Br)cc(S(=O)(=O)N3CCC(C(=O)Nc4ccccc4F)CC3)c21	.	4.7	4	1.3%	.	1.2%	.
Cc1cc(C)cc(OCc2nnc(SCC(=O)NC3CC3)n2C)c1	.	0.4	19	-0.2%	16%	.	-2
CCOC(=O)c1cc(-c2ccccc2)sc1NC(=O)CN1C(=O)c2ccccc2C1=O	.	0.1	-2	1.4%	.	0.2%	.
Cc1cccc(NC(=S)Nc2ccc(Oc3ccccc3)cc2)n1	-2.8	2.5	-19	3.4%	-5%	-0.6%	15
Cc1cc(OC(C)C(=O)NCCCn2ccnc2)c2c(C)c(C)c(=O)oc2c1 (configuration not stated)	.	-0.7	9	-0.4%	3%	3.7%	-13
O=C(c1ccc(Br)cc1)N1CCC(C(=O)N2CCN(c3ccccc3)CC2)CC1	.	1.2	9	-0.9%	5%	-2.5%	0
Cc1noc(NS(=O)(=O)c2ccc(N/C=C\C(=O)c3ccccc3)cc2)c1C	1.4	0.4	-10	-0.8%	-2%	.	12
COC(=O)c1c(C)[nH]c(C(=O)N2CCN(c3ccc(OC)cc3)CC2)c1C	5.3	.	.	.	3%	.	-5
OCCN(Cc1ccccc1)C(=S)Nc1ccc(F)cc1	-1.3	1.4	-4	0.0%	-13%	-0.5%	-3
O=C(NCc1ccccc1Cl)C1CCCN1C(=O)Nc1ccccc1 (configuration not stated)	-0.3	-0.3	-18	0.4%	15%	2.6%	6
Cc1c([N+](=O)[O-])c(C(=O)NC2CCCCC2)nn1C	.	-0.9	-19	2.2%	13%	1.1%	1
Cc1ccc(C(=O)NNC2=NCCC2)cc1	0.1	0.7	-6	-1.1%[38.3 µM]	1%	-1.5%	-4
O=C(O)c1ccc(CSc2nnc(-c3ccccc3Cl)n2-c2ccccc2)cc1	-3.1	-0.4	-6	0.5%	-1%	.	4
FC(F)(F)c1cnc2c(c1)[nH]c(=S)n2-c1ccc(Cl)cc1	-6.4	0.9	-6	40µM*	6%	-9.0%	1
